Assay outcomes deposited in PubChem BioAssay by Fisher Drug Discovery Resource Center.
NPYLR7 agonist: mosquito NPYLR7 agonism; 270,000 tested, 0.15% active; AID 1259423; HEK293T NPYLR7/Galpha15, GCaMP6s calcium fluorescence; activation, % at 10 µM; in the data active = activation above about 40%;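 note: 0% = vehicle and 100% = reference agonist at the receptor; some compounds past the cut are filed as inactive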
NPYLR7 agonist max-min: second read-out of NPYLR7 agonist, no call of its own (marks repeat the call); activation, %; measured here: Max-Min RFU normalised activation; some inactives read as strong as hits;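 span of the calcium signal over five minutes; 0% = vehicle and 100% = native peptide agonist; compound fluorescence can raise it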
The depositor's hits bear a star. The list is partial; the hit share may differ from the screen's.

SMILES	NPYLR7 agonist	NPYLR7 agonist max-min
Cc1cc(C=NN2CCOCC2)c(C)n1-c1ccc(I)cc1	3	2
CSc1ncccc1C(=O)N1C2CCC(O)(CC2)C1CO (stereo not drawn)	29	32
CC(C)(C)c1cc(NC(=O)c2ccc(OC(F)(F)F)cc2)n(-c2cccc(F)c2)n1	21	16
COCc1nn2c(nnc3c(=O)n(NC(C)=O)ccc32)c1-c1ccc(F)cc1	2	0
O=C(/C=C/c1ccccc1F)N1CCC(Cn2cc(CO)nn2)CC1	-2	-7
O=C(NCc1cccs1)c1cccnc1Oc1ccc(Cl)cc1	-8	-13
N#Cc1ccc(NC(=O)CNc2ccc(Cl)cc2)cc1	4	5
COc1cccc(-c2cc(C(=O)O)cc(S(=O)(=O)N3CCOCC3)c2)c1F	-2	-3
CCN1CCN(C(=O)c2ccccc2N2CCC(NC(=O)c3ccc(OC)cc3)CC2)CC1	0	9
O=C(NCc1cccc(Cl)c1)c1ccc(-n2cncn2)c2ccoc12	3	-1
O=C(N/N=C\c1coc2ccccc2c1=O)c1cccc(Cl)c1	6	5
Cn1cc(C(=O)N2CCN(CC(=O)N3CCOCC3)CC2)c2nn(-c3ccccc3)c(=O)c-2c1	-4	-8
O=C(NCCn1ncccc1=O)C1CCCC1	-1	0
Clc1ccc2nc(Nc3ccc4c(c3)OCO4)c3nncn3c2c1	5	0
COC(=O)NCCc1nc(COc2ccc(Cl)cc2Cl)no1	0	-6
COc1cc2c(cc1-c1nccn1-c1ccc3nc(CO)[nH]c3c1)CCC2	-1	-4
COc1cc(C(=O)N2CCc3ccccc32)cc(Br)c1O	-3	-4
O=C(/C=C/c1cc2ccccc2o1)NC1CCOc2c(Cl)cccc21 (stereo not drawn)	10	7
CCOc1ccc(-n2nnc(C(=O)OCc3cc(C)ccc3C)c2C)cc1	6	-1
Nc1cc(-c2cccc(Cl)c2)nn1-c1ccc(C(=O)NCCOc2ccccc2Cl)cc1	-1	-8
COc1ccc(S(=O)(=O)Nc2cc(C(=O)O)c(F)cc2F)cc1Br	13	12
CCc1ccc(S(=O)(=O)Nc2ccccn2)cc1	-6	-6
Nc1nonc1-c1noc(COc2ccccc2Cl)n1	-2	-3
CO/N=C1\C(=O)Nc2ccc(-c3ccccc3)cc21	1	0
O=C(Nc1cccc(O)c1)c1nn2c(C(F)(F)F)cc(-c3ccccc3)nc2c1Cl	14	12

Individual results from above.
Nc1cc(-c2cccc(Cl)c2)nn1-c1ccc(C(=O)NCCOc2ccccc2Cl)cc1 | NPYLR7 agonist = -1
O=C(N/N=C\c1coc2ccccc2c1=O)c1cccc(Cl)c1 | NPYLR7 agonist = 6
COc1cc2c(cc1-c1nccn1-c1ccc3nc(CO)[nH]c3c1)CCC2 | NPYLR7 agonist max-min = -4
O=C(NCc1cccc(Cl)c1)c1ccc(-n2cncn2)c2ccoc12 | NPYLR7 agonist = 3
O=C(/C=C/c1ccccc1F)N1CCC(Cn2cc(CO)nn2)CC1 | NPYLR7 agonist max-min = -7
COc1cccc(-c2cc(C(=O)O)cc(S(=O)(=O)N3CCOCC3)c2)c1F | NPYLR7 agonist = -2
COC(=O)NCCc1nc(COc2ccc(Cl)cc2Cl)no1 | NPYLR7 agonist = 0

Molecules listed so far that contain a furan ring, fused or not:
SMILES	NPYLR7 agonist	NPYLR7 agonist max-min
O=C(NCc1cccc(Cl)c1)c1ccc(-n2cncn2)c2ccoc12	3	-1
O=C(/C=C/c1cc2ccccc2o1)NC1CCOc2c(Cl)cccc21 (stereo not drawn)	10	7

More records.
SMILES	NPYLR7 agonist	NPYLR7 agonist max-min
COCCCN(Cc1c(-c2ccccc2)noc1N1CCc2ccccc2C1)C(=O)c1cccc(OC)c1	9	8
Cn1cc(-c2nn(-c3ccccc3)cc2C=NNC(N)=S)c2ccccc21	9	2
CC(=O)c1ccc2c(c1)N(CCCC(=O)NCCN1CCCCC1)C(=O)CO2	13	7
CC1=C(SCc2ccccc2)C(=O)c2ccccc2C1=O	7	6
COc1ccccc1CC(NC(=O)N1CCCC(CO)C1)C(C)C (stereo not drawn)	-2	-2
CC(C)(O)C#Cc1cccc(C(=O)N2CCc3c(c(C(=O)N4CCCC4)nn3Cc3ccccc3)C2)c1	19	7
CC(=O)N1CCN(CC(=O)N2N=C(c3cc(C)ccc3C)CC2c2ccc(C)cc2)CC1 (stereo not drawn)	-12	-6
CCc1nc2c(OCc3ccc(S(C)(=O)=O)cc3)cccn2c1N(C)C(=O)c1ccc(OC)cc1	12	9
COc1ccccc1C(=O)N1CCN(C(C(=O)NC2CCCc3ccccc32)C2CCCC2)CC1 (stereo not drawn)	-7	-10
CN(CC1CCN(CCc2ccc(F)cc2)CC1)C(=O)CC1=CCCCC1	4	-2
CCn1c(N2CCN(CCc3ccccc3)CC2)nc2c1c(=O)[nH]c(=O)n2C	-1	50
COc1cc(OC)c(C(=O)CCC(=O)O)cc1OC	-3	-6
CCOC(=O)C(=O)Nc1cccc(-c2cccc(-c3ccccc3OC)n2)c1	4	-1
C=Cc1ccc(Cn2ccn3nc(-c4ccc(CC)cc4)cc3c2=O)cc1	2	-3
O=C1OC(c2ccc(Cl)cc2)=N/C1=C\C=C\c1ccccc1	-2	-9
Cc1cccc(C(C(=O)NCc2ccc3nonc3c2)N(C)C)c1 (stereo not drawn)	2	-9
CC1=CCC2CC1C(C)OC2(C)C (stereo not drawn)	13	3
CCOC(=O)CCC(=O)Nc1c(C)nc2scc(C)n2c1=O	23	18
COc1c(C)cnc(CNC(=O)c2c(F)cccc2F)c1C	1	5
COc1cccc(CN(C)C(=O)c2cc3ccccc3o2)c1OC	3	0
C/C(=C(\CCOP(=O)(O)O)SC(=O)c1ccccc1)N(C=O)Cc1cnc(C)nc1N	-6	-10
FC(F)Oc1ccc(CNCc2cc(Cl)c3c(c2)OCO3)cc1	7	2
CS(=O)(=O)c1ccc(CC(=O)N(Cc2ccccn2)c2nc3ccc(F)cc3s2)cc1	0	0
O=C(NN=C1CCCCC1)c1ccccc1OCc1ccc(F)cc1	3	1
COc1cn(CC(=O)Nc2cc(C)on2)c(CN2CCCC2)cc1=O	-2	-4

Retrieved one by one from above:
SMILES	NPYLR7 agonist	NPYLR7 agonist max-min
COc1cccc(CN(C)C(=O)c2cc3ccccc3o2)c1OC	3	0
COc1cc2c(cc1-c1nccn1-c1ccc3nc(CO)[nH]c3c1)CCC2	-1	-4

Seven compounds already listed, arranged by number of heavy atoms, smallest number first.
SMILES	NPYLR7 agonist	NPYLR7 agonist max-min
N#Cc1ccc(NC(=O)CNc2ccc(Cl)cc2)cc1	4	5
COc1ccc(S(=O)(=O)Nc2cc(C(=O)O)c(F)cc2F)cc1Br	13	12
O=C(/C=C/c1ccccc1F)N1CCC(Cn2cc(CO)nn2)CC1	-2	-7
CCn1c(N2CCN(CCc3ccccc3)CC2)nc2c1c(=O)[nH]c(=O)n2C	-1	50
Nc1cc(-c2cccc(Cl)c2)nn1-c1ccc(C(=O)NCCOc2ccccc2Cl)cc1	-1	-8
COc1ccccc1C(=O)N1CCN(C(C(=O)NC2CCCc3ccccc32)C2CCCC2)CC1 (stereo not drawn)	-7	-10
COCCCN(Cc1c(-c2ccccc2)noc1N1CCc2ccccc2C1)C(=O)c1cccc(OC)c1	9	8

Remaining list, next part.
SMILES	NPYLR7 agonist	NPYLR7 agonist max-min
CCOC(=O)C1CCN(Cn2ccc(-c3ccc(C#N)cc3)n2)CC1	-7	-8
OCC1(Cc2cccc(Cl)c2)CCCN(Cc2ccc3cc(F)ccc3n2)C1 (stereo not drawn)	-5	-9
COc1cccc(NC(=O)CCC2CCN(C(=O)CN3CCOC3=O)CC2)c1	6	5
O=C(COc1ccc(Br)cc1)NNC(=O)C1COc2ccccc2O1 (stereo not drawn)	-3	-9
COc1ccc(S(=O)(=O)NCC2CCCN(C/C(C)=C/c3ccccc3)C2)cc1 (stereo not drawn)	8	9
CCC(=O)Nc1ccc(S(=O)(=O)NCCn2nc(-c3cccs3)ccc2=O)cc1	1	2
CCOC(=O)C(Cc1ccc(Cl)cc1)NC(=O)C1CC=CCC1C(=O)N1CCC(C#N)(c2ccccc2)CC1 (stereo not drawn)	-11	-22
Cc1ccccc1C(=O)N[C@@H]1CCCCC1NC(=O)C1CCN(C(=O)C(C)(C)CCl)CC1 (stereo partly drawn)	0	1
N#CC(=C1CCCCC1)c1nc2ccccc2s1	17	14
COc1cccc(CSc2nnc(C(C)NC(=O)Nc3ccc(F)cc3F)n2-c2ccc(C)cc2)c1 (stereo not drawn)	17	20
CCN(CC)CCn1c2ccccc2n2cc(C)nc12	7	1
OCCC#Cc1ccc(CN2CC[C@@]3(O)CCCC[C@H]3C2)cc1	6	5
CC1(C(=O)N2CCCc3cc(F)ccc32)CC1(Cl)Cl (stereo not drawn)	0	-1
COc1ccc(CC(=O)NCC2CCCN(C/C=C/c3ccc(F)cc3)C2)cc1 (stereo not drawn)	-3	-6
O=C(c1ccc(F)c(F)c1)N1CCN(Cc2cccc(-c3noc(-c4cccc(Cl)c4)n3)c2)CC1	14	8
COc1ccc(F)c(-c2ccccc2OC(C)C(N)=O)c1 (stereo not drawn)	7	4
O=C(CC1(C(F)(F)F)NCCN1)c1ccco1	1	0
O=C(OCc1ccccc1)N1CCC(CNc2cnc3ccccc3c2)CC1	7	5
CCCCn1c(=O)c2c(nc3n(CC(=O)OCC)c(C)cn23)n(C)c1=O	3	2
COc1cccc(OCc2ccccc2)c1C(=O)NCCc1cccc(F)c1	-8	-14
COc1ccc(OC)c(-c2cccnc2F)c1	20	15
O=C(O)C1CCN(C(=O)Cn2nnc3ccccc32)CC1	-7	-7
Cc1ccc(S(=O)(=O)Nc2cccnc2N2CCSCC2)cc1	3	0
CCC(C)C(=O)NCc1ccnc(N(C)C)c1 (stereo not drawn)	2	-2
Cc1cccc(C)c1Cn1c(C)c(C(=O)NCc2ccc3c(c2)OCCO3)sc1=O	-2	-5
SMILES	NPYLR7 agonist	NPYLR7 agonist max-min
OCCn1c(CSc2nnnn2C2CC2)nc2ccc(Cl)cc21	-2	-1
Cc1nc2n(n1)C(=O)C(C(c1ccc(Br)cc1)N1CCC(C)CC1)S2 (stereo not drawn)	3	1
CC(C)NC(=O)COc1coc(CN2CCN(Cc3ccccc3)CC2)cc1=O	-3	50
CS(=O)(=O)c1ccc(C(=O)Nc2ncc(Cc3ccc(C(F)(F)F)cc3)s2)cc1	7	1
CCOc1ccc(C(N)P(=O)(O)O)cc1 (stereo not drawn)	-7	-11
c1ccc(CCn2ccnc2-c2cc3ccccc3o2)nc1	9	7
Cc1ccc(C(C)C)cc1S(=O)(=O)NC1CC(C)(C)NC(C)(C)C1	2	2
CC(C)(C)c1cc2nc(C(=O)NCc3cccnc3)cc(-c3ccccc3F)n2n1	-9	-9
CC(C)c1cc(C(=O)NC2CCN(C(C)C)C2)nn1C(C)(C)C (stereo not drawn)	10	8
CC(CNC(=O)c1cn(Cc2ccccc2F)nn1)Oc1cccnc1 (stereo not drawn)	18	7
CCC(C)N(CCC(=O)Nc1ccccc1F)c1nc(Cc2ccc(C)cc2)ns1 (stereo not drawn)	16	18
CCOC(=O)c1cc(-c2cccc(NC(=O)c3ccc(C#N)cc3)c2)n(-c2ccccc2F)n1	28	13
COc1ccc2cc(CN3[C@@H]4CC[C@H]3CN(C)C(=O)C4)c(=O)[nH]c2c1	4	2
Cc1ccc(-c2nnc(CCC(=O)NCCc3nc4ccccc4n3C)o2)s1	-1	-4
Cc1ccccc1C1=NOC(CN(Cc2ccc(F)cc2F)CC(O)Cc2ccccc2)C1 (stereo not drawn)	-3	-2
CC(C)C(=O)N1CCC(Cn2ccnc2-c2ncc[nH]2)CC1	7	5
O=C(NCCc1ncn[nH]1)Nc1ccccc1C(F)(F)F	8	2
Cc1cc(-c2nn3c(CN(C)Cc4ccccc4)nnc3s2)no1	2	0
Cc1ccc(Cc2nsc(N3CCC(C(=O)N4CCC(n5c(=O)[nH]c6ccccc65)CC4)CC3)n2)cc1	10	16
COc1cccc(Cc2nsc(N3CCC(CNC(=O)C(Cl)Cl)CC3)n2)c1	26	26
CC(C)C1CC(=O)NCCN1Cc1ccc(OCCCN(C)C)cc1 (stereo not drawn)	10	-2
O=C(CC1NC(=O)c2ccccc21)NCc1nc(C2CCCCC2)no1 (stereo not drawn)	8	5
CCOc1ccc(/C=C2/NC(=S)NC2=O)cc1OC	-1	-2
NC(=O)[C@@H]1C[C@@H](O)[C@H](O)[C@H]2[C@@H]1N(c1ccc(Cl)cc1)C(=S)N2CC1CCCCC1	-9	-16
CCN(CC#N)C(=O)CC(C)c1cccc(OC)c1 (stereo not drawn)	10	8
SMILES	NPYLR7 agonist	NPYLR7 agonist max-min
Cc1ccc(C2C(C(=O)c3ccco3)=C(O)C(=O)N2CCCN(C)C)o1 (stereo not drawn)	13	6
CC(=O)c1ccc(C(=O)NC(c2ccncc2)c2ccccc2C)s1 (stereo not drawn)	-2	-6
CCOC(=O)c1sc(-c2ccccc2)cc1NC(=O)Cn1c(C)csc1=O	9	5
O=C(c1ccc(Br)cc1)N1CCCC(OCc2cc(F)ccc2F)C1 (stereo not drawn)	-4	-3
Cn1c(-c2ccccc2O)[n+](C)c2ccccc21	-1	-11
COc1ccccc1-c1c(C)nn2c(N3CCN(c4cccc(C)n4)CC3)cc(C)nc12	4	6
C=CCSc1nc2c(c(=O)[nH]1)C(c1sccc1C)C(C(=O)OCC)=C(C)N2 (stereo not drawn)	3	7
COc1ccc(N2CCN(C(=O)C3CCCCC3C(=O)NC(c3ccccc3)c3ccccc3)CC2)cc1 (stereo not drawn)	-7	-14
CC(NC(=O)c1cscn1)C1CN(Cc2ccccc2)CCO1 (stereo not drawn)	1	0
COc1ccc(-c2nnc3ccc(OCCNS(=O)(=O)c4cccnc4)nn23)cc1	14	8
CCS(=O)(=O)Oc1ccc(CN(C(=O)Nc2ccc(OC)cc2OC)C(C)C)cc1	-8	-8
O=C(Nc1ccccc1)NC1CC(=O)N(Cc2cccc(F)c2)C1 (stereo not drawn)	11	5
